CtBP-E1A blk – CtBP/E1A binding inhibition; AlphaScreen GST-E1A/His-CtBP binding, 1536-well; stronger effect = lower value; control for the full effect not named in the record; activity change, % (no concentration beside the values); 340,000 compounds, 0.49% hits; AID 651724; in the data active means activity change below about -65%; inconclusive means about -30% to -65%; inactive means above about -30%; further: on the % scale 0 is the no-effect control and ±100 the full control effect
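Homogeneous bead-based format: GST-tagged E1A captured on glutathione donor beads, His-tagged CtBP on nickel acceptor beads; compounds precede bead addition by 2 h at 37 °C.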
gsp antag – antagonizes gsp, the McCune-Albright syndrome mutation; 340,000 compounds, 0.4% hits; gsp-mutant cells, cAMP HTRF, 30 min; control for the full effect not named in the record; Potency, µM (top dose mostly 76.9 µM), for the others: top-dose activity change, negative = inhibition, actives largely listed as inhibitors; active = falling curve of any shape with a large fitted effect; inconclusive = falling curve, mostly with a smaller effect; inactive = flat or rising curve; cell line not stated here;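 further: intracellular cAMP measured with PDE inhibitor Ro 20-1724 present during compound exposure; potency means the concentration at half of the fitted maximal effect; on the % scale 0 is the no-effect control and ±100 the full control effect; nearly all actives have a fitted effect of over 65% in size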
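Cells in G418 medium, seeded 16-24 h, 37C; buffer exchange to DPBS + 1 mM CaCl2, 0.5 mM MgCl2, 0.05% BSA; cpds in DMSO + […] (300 uM stock), 30 min 37C; HTRF cAMP detection.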
Sfp PPTase inh – Sfp phosphopantetheinyl transferase inhibition; Biochemical Sfp PPTase activity, qHTS; Potency, µM, without a hit: max response, negative = inhibition, hits mostly inhibitors; 310,000 compounds, 3.5% hits; active means well fitted inhibition curve with a large enough effect; inconclusive means small, poorly fitted or top-dose-only effect, or another doubt; inactive means no such curve, though single readings can be large or run the other way;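 further: the enzyme is Sfp with the accession as filed and its product quenches rhodamine fluorescence; potency means the concentration at half of the fitted maximal effect; 0% = enzyme reaction without inhibitor and -100% = no enzyme wells; top concentration of the series not given in the record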
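Reaction rates are the 30-min fluorescence difference (ex 525, em 598 nm) in wells containing 15 nM Sfp, 5 uM rhodamine-CoA and 12.5 uM BHQ-2-YbbR at pH 7.6 with 10 mM MgCl2.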
ClpP mod – qHTS Assay for Activators of ClpP; ATP-dependent Clp protease proteolytic subunit (Bacillus subtilis (strain 168)), P80244; purified B. subtilis ClpP, FRET peptide cleavage, 20 min; 340,000 compounds, 1.9% hits; Potency, µM (highest dose often 57.5 µM), inactives show top-dose activity change, negative = active; AID 651965, 2013; active = well fitted falling curve with a large enough effect; inconclusive = small, poorly fitted or top-dose-only effect; inactive = no such curve, though single readings can be large or run the other way; further: potency means the concentration at half of the fitted maximal effect; the source files actives as falling curves though it sought activators and does not explain the sign; nearly all actives have a fitted effect of over 65% in size; many hits overshoot -100%
Target sequence (P80244 whole entry, looked up): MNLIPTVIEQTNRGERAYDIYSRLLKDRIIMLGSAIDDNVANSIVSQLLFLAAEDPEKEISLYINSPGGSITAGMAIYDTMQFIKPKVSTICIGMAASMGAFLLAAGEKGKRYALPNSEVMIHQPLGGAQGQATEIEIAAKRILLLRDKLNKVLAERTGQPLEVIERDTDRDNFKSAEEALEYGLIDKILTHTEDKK
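ClpP 10 microg/mL final, pH 8 Tris/KCl buffer with BSA, glycerol, Tween-20; compound pinned in; FRET-FV substrate; RT 20 min; Ex320/Em430; ΔFRET vs ADEP 5.8 microM, DMSO, no enzyme.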
TRPV1 potentiator – enhances activation of the human vanilloid receptor TRPV1; 320,000 compounds, 0.02% hits; TRPV1-expressing cells, Fluo-8 calcium influx, capsaicin EC20 potentiation; host cell line not named in the record; control for the full effect not named in the record; Q8NER1; potentiation, % at 8.33 µM; active means potentiation above 80%; inconclusive means 30% to 80%; inactive means below 30%; further: 0% is about no effect
Target sequence (Q8NER1 whole entry, looked up): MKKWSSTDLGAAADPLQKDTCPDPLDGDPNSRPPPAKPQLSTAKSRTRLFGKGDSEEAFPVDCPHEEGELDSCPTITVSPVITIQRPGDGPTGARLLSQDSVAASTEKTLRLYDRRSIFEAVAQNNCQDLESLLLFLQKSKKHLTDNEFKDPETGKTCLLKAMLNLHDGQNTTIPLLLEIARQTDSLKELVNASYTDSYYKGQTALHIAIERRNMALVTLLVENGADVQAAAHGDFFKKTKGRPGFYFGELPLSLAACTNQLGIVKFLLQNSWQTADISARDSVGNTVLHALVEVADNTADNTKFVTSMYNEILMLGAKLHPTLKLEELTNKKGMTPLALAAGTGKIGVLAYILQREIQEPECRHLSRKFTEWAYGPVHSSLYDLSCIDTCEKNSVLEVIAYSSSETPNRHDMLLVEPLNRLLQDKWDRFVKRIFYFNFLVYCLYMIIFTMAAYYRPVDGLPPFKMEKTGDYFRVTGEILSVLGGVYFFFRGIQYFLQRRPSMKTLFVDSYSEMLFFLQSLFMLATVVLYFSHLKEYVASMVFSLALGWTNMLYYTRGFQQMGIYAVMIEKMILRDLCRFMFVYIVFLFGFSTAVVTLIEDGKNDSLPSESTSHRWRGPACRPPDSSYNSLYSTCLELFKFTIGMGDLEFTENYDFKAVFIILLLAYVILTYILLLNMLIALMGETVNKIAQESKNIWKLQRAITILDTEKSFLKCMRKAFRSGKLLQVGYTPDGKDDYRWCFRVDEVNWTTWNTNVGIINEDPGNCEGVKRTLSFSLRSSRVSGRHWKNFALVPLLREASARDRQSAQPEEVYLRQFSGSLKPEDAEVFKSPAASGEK
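Fluo-8 calcium influx in TRPV1-expressing cells, kinetic read (ex 480/em 520 nm). Compound added and read 3 min for agonist activity, followed by capsaicin at EC20 final and 2 min further read for enhancement.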
Menin-MLL FL inh – menin-MLL binding inhibition, fluorescein peptide | Fluorescence polarization, fluorescein-MLL peptide displacement from menin | FP activity change, % at 61.4 µM | 290,000 tested, under 10 active | AID 1766; inconclusive = falling polarisation curve, or a change in total fluorescence; inactive = total fluorescence flat and polarisation flat or rising; no compound was filed as active; the % refers to the polarisation; negative = inhibition;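 further: % of control where 0% means no effect; inhibitors lower the polarisation; unlabelled MLL peptide was the positive control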
gsp ag – agonists of gsp mutant (McCune-Albright syndrome); 340,000 compounds, 0.13% hits; Potency, µM (doses to about 76.9 µM), for inactives: at the highest dose activation (cAMP increase), usual class: activators; gsp mutant cells, cAMP HTRF, 30 min; control for the full effect not named in the record; active = well fitted activation curve with a large enough effect; inconclusive = small, poorly fitted or top-dose-only effect, or another doubt; inactive = no such curve, though single readings can be large or run the other way; cell line not stated here;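 further: phosphodiesterase inhibitor Ro 20-1724 added with compounds to block cAMP breakdown; potency means the concentration at half of the fitted maximal effect; nearly all actives have a fitted effect of over 60% in size; about a fifth of the inactives were tested at one dose only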
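Cells in DMEM/10% FBS with G418 were pretreated with compounds in DMSO plus […] (300 uM stock) for 30 min at 37C. cAMP was measured by HTRF (cAMP-d2 plus anti-cAMP antibody-K) after 30 min at room temperature.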
Active calls of the source: *; u = inconclusive; x = not tested or not shown; [ ] = remark or other dose.

[1] CN(C)C(CNS(=O)(=O)c1cc([N+](=O)[O-])ccc1Cl)c1ccco1 (centres undefined)
[2] CN(C)C(=C(C#N)C#N)N1CCN(c2ccc(Cl)cc2)CC1
[3] Cn1cccc1Cc1nnc(SCC(=O)Nc2nccs2)n1C
[4] O=C(CSc1nc(Cc2ccccc2)nc2ccccc12)Nc1ccc2c(c1)OCCO2
[5] NC(=O)c1c(NC(=O)Cc2ccccc2)sc2c1CCN(Cc1ccccc1)C2
[6] O=C(CC1Nc2ccccc2NC1=O)Nc1ccc2c(c1)OCO2 (centres undefined)
[7] Cc1cc(NC(=O)CN2C(=O)NC(C)(c3ccc(Cl)cc3)C2=O)no1 (centres undefined)
[8] CC(C)Oc1ccc(/C=N/NC(=O)C(CSCc2ccccc2)NC(=O)c2ccc([N+](=O)[O-])cc2)cc1 (centres undefined)
assay / compound,1,2,3,4,5,6,7,8
CtBP-E1A blk,-13,1,-4,-1,1,-12,-3,-4
gsp antag,5%,-7%,4%,22%,-13%,-11%,4%,-1%
Sfp PPTase inh,x,22%,22%,u,2%,-13%,-1%,19%
ClpP mod,x,x,0.3%,-2.2%,7.4%,x,0.4%,1.9%
TRPV1 potentiator,x,7,u,11,4,-9,0,6
Menin-MLL FL inh,x,-0.7,5.0,-0.9,7.8,-3.0,-3.2,6.2
gsp ag,7%,13%[15.4 µM],-20%,4%,-36%[inhibitor],8%[15.4 µM],-4%,u

[9] CCn1nnc(NC(=O)c2ccc(-c3ccc(Cl)cc3)o2)n1
[10] Cc1ccc(S(=O)(=O)N2CCN(C(=O)c3cccs3)CC2)c(C)c1
[11] COc1ccccc1NC(=O)COC(=O)/C=C/c1ccccc1[N+](=O)[O-]
[12] CCCCOC(=O)CSC(=S)N(C)Cc1cccs1
[13] COc1cccc(C(C(=O)NC2CCCCC2)N(C(=O)CNC(=O)c2ccco2)c2cccnc2)c1 (centres undefined)
[14] CN(CCCNC(=O)C1CCC(=O)N1Cc1ccccc1Cl)c1ccccc1 (centres undefined)
[15] C/C(=N\NC(=O)c1ccc2c(c1)OCO2)c1ccc(NS(C)(=O)=O)cc1
[16] Cc1c(O)ccc(/C(Cc2ccc3ccccc3n2)=N\O)c1O
assay / compound,9,10,11,12,13,14,15,16
CtBP-E1A blk,-14,1,13,82,-6,-10,-2,-7
gsp antag,-17%,-6%,9%,-1%,8%,-8%,-11%,u
Sfp PPTase inh,u,-1%,13%,-14%,11%,20%,x,29%
ClpP mod,11µM*,x,3.9%,-1.3%,0.0%,-1.2%,-0.6%,0.6%
TRPV1 potentiator,-5,-61,6,-1,23,u,x,1
Menin-MLL FL inh,0.4,-1.3,2.3,-0.1,2.0,-0.6,x,2.9
gsp ag,0%,-1%[15.4 µM],-8%[15.4 µM],-22%,-15%[15.4 µM],18%,5%[15.4 µM],6%

[17] COc1cc(NC(=O)CCCl)cc(-n2cnnn2)c1
[18] CN(Cc1ccccc1)C(=O)c1ccccc1NC(=O)C1=CSCCO1
[19] COc1ccc(Cc2nc3ccc(C(=O)N(C)CCc4cnn(C)c4)cc3o2)cc1OC
[20] CCC(C)[C@H]1COCCS(=O)(=O)N1Cc1ccccc1 (some centres undefined)
[21] COc1ccc(/C=C/C(=O)c2ccc(O)cc2)cc1COc1ccc(F)cc1
[22] CC(=O)Nc1ccc(Cl)c(-c2nc3ncccc3o2)c1
[23] CCCNC(=O)c1ccc(N2CCC3(CC2)CC(c2cccc(Br)c2)=NO3)c(NC(=O)c2cccc(C)c2)c1
[24] O=C(Nc1ccc2c(c1)OCO2)c1cc(Cl)ccn1
assay / compound,17,18,19,20,21,22,23,24
CtBP-E1A blk,3,x,6,1,17,-28,2,4
gsp antag,15%,-12%,2%,8%,-22%,-3%,-5%,9%
Sfp PPTase inh,-7%,21%,3%,-6%,1%,14%,x,x
ClpP mod,x,-0.2%,-0.7%,0.9%,-2.1%,x,-29%,-0.8%
TRPV1 potentiator,3,3,21,2,-9,7,-2,-14
Menin-MLL FL inh,1.7,x,-0.6,3.3,2.3,1.1,x,x
gsp ag,-5%[15.4 µM],15%,19%[15.4 µM],-78%[inhibitor],u,13%,-2%,-21%

Reformatted tab-delimited: part of the list above.
no.	molecule	CtBP-E1A blk	gsp antag	Sfp PPTase inh	ClpP mod	TRPV1 potentiator	Menin-MLL FL inh	gsp ag
20	CCC(C)[C@H]1COCCS(=O)(=O)N1Cc1ccccc1 (some centres undefined)	1	8%	-6%	0.9%	2	3.3	-78%[inhibitor]
21	COc1ccc(/C=C/C(=O)c2ccc(O)cc2)cc1COc1ccc(F)cc1	17	-22%	1%	-2.1%	-9	2.3	u
22	CC(=O)Nc1ccc(Cl)c(-c2nc3ncccc3o2)c1	-28	-3%	14%	x	7	1.1	13%
23	CCCNC(=O)c1ccc(N2CCC3(CC2)CC(c2cccc(Br)c2)=NO3)c(NC(=O)c2cccc(C)c2)c1	2	-5%	x	-29%	-2	x	-2%
24	O=C(Nc1ccc2c(c1)OCO2)c1cc(Cl)ccn1	4	9%	x	-0.8%	-14	x	-21%

Next structures.
[25] NC(=S)Nc1cccc(Cl)c1
[26] CCOCCN1CCN(c2c(C)c(C)nc3cc(-c4cc(OC)cc(OC)c4)nn23)CC1
[27] Cc1cccc(N(Cc2cc3ccc(C)cc3[nH]c2=O)S(=O)(=O)c2ccccc2)c1
[28] O=C1c2cccc3cccc(c23)C(=O)N1Nc1ccccc1
[29] O=C(NCCc1c[nH]c2ccccc12)OCCSS(=O)(=O)O
[30] O=C1Nc2cc(C(=O)NCC3CCCO3)ccc2S/C1=C/c1ccccc1F (centres undefined)
[31] COc1ccc(/C=C2/N=C3CCCCCN3C2=O)cc1
[32] COc1ccc(C=C2OC(=O)C(C(C)=O)=C2O)cc1
assay / compound,25,26,27,28,29,30,31,32
CtBP-E1A blk,-2,-16,x,11,-7,x,x,-5
gsp antag,8%,13%,-10%,x,6%,-2%,-2%,x
Sfp PPTase inh,4%,0%,7%,-5%,6%,12%,13%,x
ClpP mod,x,-18%,25µM*,x,-2.6%,-4.4%,x,4.0%
TRPV1 potentiator,25,-9,6,u,-6,-20,-11,x
Menin-MLL FL inh,-4.8,-0.1,5.7,2.2,-4.6,6.3,0.1,x
gsp ag,22%,10%,28%,-5%[15.4 µM],-4%[15.4 µM],18%,-12%[15.4 µM],-2%

[33] O=C1CC(NC23CC4CC(CC(C4)C2)C3)C(=O)N1c1ccc2c(c1)OCO2 (centres undefined)
[34] CC1=C(C(=O)OC(C)C)[C@@H](c2ccc(C)o2)NC(=O)N1
[35] CCCCNc1nc(CC)c2c(c1C#N)CCCC2
[36] N=c1ccccn1CC(O)COc1ccccc1 (centres undefined)
[37] C[C@H](CO)N1C[C@H](C)[C@@H](CN(C)S(C)(=O)=O)Oc2c(NC(=O)C3CC3)cccc2C1=O
[38] CCOC(=O)c1sc(=S)n(C)c1NC(=O)c1ccc(C(C)(C)C)cc1
[39] CCOc1ccc(S(=O)(=O)N2CCN=C2c2ccccc2)c(C)c1C
[40] COc1ccc(/C(O)=C2/C(=O)C(=O)N(Cc3ccco3)C2c2cccs2)cc1 (centres undefined)
assay / compound,33,34,35,36,37,38,39,40
CtBP-E1A blk,0,2,0,4,-1,-3,7,-2
gsp antag,7%,-6%,-11%,0%,5%,u,3%,-12%
Sfp PPTase inh,-4%,10%,2%,-7%,x,u,7%,10µM*
ClpP mod,1.0%,x,28µM*,u,1.1%,1.3%,1.4%,-2.2%
TRPV1 potentiator,-1,-7,11,-6,x,28,-6,-2
Menin-MLL FL inh,-1.0,0.9,-3.0,1.0,x,1.8,x,u
gsp ag,-23%,-11%[15.4 µM],u,-15%,x,5%[15.4 µM],-7%[15.4 µM],u

An excerpt of these results, with two lines to a compound.
Below each compound – CtBP-E1A blk	gsp antag	Sfp PPTase inh	ClpP mod	TRPV1 potentiator	Menin-MLL FL inh	gsp ag
[34] CC1=C(C(=O)OC(C)C)[C@@H](c2ccc(C)o2)NC(=O)N1
 : 2	-6%	10%	x	-7	0.9	-11%[15.4 µM]
[35] CCCCNc1nc(CC)c2c(c1C#N)CCCC2
 : 0	-11%	2%	28µM*	11	-3.0	u

(next part)
[41] O=C(NCc1ccc(F)cc1)N1[C@H]2CC[C@@H]1C=C(c1ccc(F)cc1OCc1ccccc1)C2
[42] O=S(=O)(c1ccccc1)N1CCN(C(=S)NCCc2ccccc2)CC1
[43] COc1ccc(-c2cc3c(=O)n(CC(=O)NCCCN4CCC(N5CCCCC5)CC4)nc(C)n3n2)cc1
[44] O=c1cc(NCc2ccccc2)c2ccccc2o1
[45] CC(C)(C)c1cc(-c2nc(N)nc(N)n2)cc(C(C)(C)C)c1
[46] O=C(CNS(=O)(=O)c1ccc(Br)s1)N1CCC(N2CCCCC2)CC1
[47] CCN(CC)CCCC(C)Nc1cc(/C=C/c2ccccc2Cl)nc2cc(Cl)ccc12 (centres undefined)
[48] Cc1oc(-c2ccccc2F)nc1CS(=O)(=O)CC(=O)NCCCN1CCc2ccccc2C1
[49] O=C(OCCN=C1NS(=O)(=O)c2ccccc21)C1CC(=O)N(c2ccc(Cl)cc2)C1 (centres undefined)
assay / compound,41,42,43,44,45,46,47,48,49
CtBP-E1A blk,7,2,-1,7,9,-14,x,0,-4
gsp antag,x,-10%,11%,1%,5%,-2%[15.4 µM],x,-12%,5%
Sfp PPTase inh,x,5%,6%,3%,46%[activator],9%,22%,18%,12%
ClpP mod,-2.6%,-1.5%,-0.9%,-0.6%,-2.2%,2.1%,4.3%,-1.8%,-1.9%
TRPV1 potentiator,x,-8,-2,6,-6,3,x,-2,1
Menin-MLL FL inh,x,3.5,x,1.8,4.0,0.0,0.1,-1.1,3.7
gsp ag,6%,-12%,u,u,-20%,4%,x,6%,u

Bioassay records: PubChem BioAssay, National Center for Advancing Translational Sciences (NCATS)
